# Rango release inh: prevents RanGTP from dissociating the Rango-importin beta complex. hit rate 0.071% among 340,000. Potency, µM (highest dose often 46.1 µM), for inactives: at the top dose activity change, negative = inhibition. Biochemical FRET Rango-importin beta, RanGTP-induced dissociation; active means falling FRET ratio curve, often poorly fitted, with flat reads before Ran was added; inconclusive means other falling curves, or compound fluorescence or quenching; inactive means flat or rising ratio curve;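 further: potency means the concentration at half of the fitted maximal effect; % of control where 0% means no effect; nearly all actives have a fitted effect of over 45% in size; -100% = wells without RanGTP and RCC1; the record marks most hits as doubtful in a second field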
#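 Recombinant Rango FRET biosensor (EYFP–snurportin 1 IBB–cerulean CFP10) at 0.1 uM premixed with 0.25 uM importin beta in PBS, 1 mM DTT, 0.02% Tween-20, 0.1% BSA. Compound added 5 min; RanGTP-RCC1 (0.6 uM Ran, 2 mM GTP, 0.2 uM RCC1) then triggers release, read at 45 min.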
# miR-21 FLuc: raises the signal of a miR-21 reporter; HeLa miR-21 FLuc reporter, luciferase, 48 h; Potency, µM (series often up to 38.3 µM), for inactives: top-dose reporter change, positive = more light; 340,000 tested, under 10 active; AID 2288; active = well fitted rising curve with a large enough effect; inconclusive = small, poorly fitted or top-dose-only effect; inactive = no such curve, though single readings can be large or run the other way;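 further: % of control where 0% means no effect; miR-21 action dims this reporter so a rising signal means less miR-21 action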
#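 HeLa cells stably expressing CMV-driven firefly luciferase with a downstream miR-21 binding sequence, endogenously expressing miR-21, were treated with titrations (up to about 40uM final) for 48 hours at 37 degree Celsius. Luciferase luminescence was read after lysis.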
# GLA inh pH 4.5: blocks human alpha-galactosidase A at pH 4.5 | activity change, negative = inhibition, % at 105 µM | AID 1467 | 230,000 tested, under 10 active | P06280 | purified enzyme, 4-MU-alpha-Gal fluorescence, pH 4.5; inconclusive = small, poorly fitted or top-dose-only inhibition, or a rising curve; inactive = flat fitted curve, though single readings scatter; no compound was filed as active;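 further: 0% = full activity with enzyme and -100% = basal without enzyme; dose as in the result columns while the protocol names 77 µM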
# Target sequence (P06280 whole entry, looked up): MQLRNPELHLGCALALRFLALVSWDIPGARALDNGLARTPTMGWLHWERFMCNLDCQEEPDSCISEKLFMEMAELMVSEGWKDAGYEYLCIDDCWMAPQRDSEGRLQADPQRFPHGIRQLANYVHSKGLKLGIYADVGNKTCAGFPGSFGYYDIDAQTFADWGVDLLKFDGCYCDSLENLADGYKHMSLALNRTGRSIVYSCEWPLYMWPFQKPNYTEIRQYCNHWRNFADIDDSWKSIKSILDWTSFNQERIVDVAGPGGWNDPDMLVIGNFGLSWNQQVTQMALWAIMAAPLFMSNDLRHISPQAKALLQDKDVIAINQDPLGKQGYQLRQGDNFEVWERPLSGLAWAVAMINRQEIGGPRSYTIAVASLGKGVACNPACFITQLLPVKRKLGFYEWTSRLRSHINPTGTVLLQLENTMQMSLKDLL
# Rango-impB inh: prevents formation of the Rango-importin beta complex. Q14974. Rango CFP/YFP FRET sensor + importin beta, 45 min. Potency, µM (top dose mostly 92.2 µM), inactives show top-dose inhibition of complex formation. hit rate 0.031% among 340,000. AID 540263; active = rising FRET ratio curve, often small or poorly fitted; inconclusive = mostly compound fluorescence or quenching in the first reads; inactive = flat curves in all reads;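 further: potency means the concentration at half of the fitted maximal effect; 0% = DMSO wells and 100% = buffer wells lacking importin beta; nearly all actives have a fitted effect of over 15% in size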
#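 Inhibition scored from the CFP 486 nm/YFP 530 nm FRET ratio 45 min after adding 0.125 microM importin beta to 50 nM Rango biosensor preincubated 5 min with compound (room temperature, PBS with DTT, Tween-20, BSA). No-importin wells as positive control.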
# The depositor's hits bear a star; ? = inconclusive; / = not tested or not shown; & = joins results of further samples. Not all compounds are listed; count on the stated rates, not on these rows.
no.	structure	Rango release inh	miR-21 FLuc	GLA inh pH 4.5	Rango-impB inh
1	Cc1cc(C)n(C(=O)c2ccc(C)o2)n1	3%	-4%	-2	2.8%
2	COc1ccc(C2CC(=O)C3=C(C2)NC(C)=C(C(=O)Nc2ccccc2C)C3c2coc3ccc(C)cc3c2=O)cc1OC (stereo unspecified)	1%	9%	-26	-1.2%
3	Cc1cccc(N2CCN(CC(=O)NCC3CCCCC3)CC2)c1C	-5%	-5%	-8	3.7%
4	O=[N+]([O-])c1cc(C(F)(F)F)ccc1N1CCC(O)CC1	-1%	0%	2	-1.1%
5	Cc1ccc(S(=O)(=O)N2CCCCC2)cc1C(=O)N1CCCC1	?	-6%	/	0.0%
6	CCCCCCCCCCCC(=O)NC(C(=O)O)C(O)c1ccccc1 (stereo unspecified)	-8%	-1%	-4	0.8%
7	COc1ccc(S(=O)(=O)NCC(c2cccnc2)N2CCN(Cc3ccccc3)CC2)cc1C (stereo unspecified)	10%	-2%	/	-1.5%
8	Cc1ccc(C)c(OCCC(=O)OCC(=O)c2c(N)n(C)c(=O)n(C)c2=O)c1	-21%	/	/	-0.4%

# Full records as entered above.
# CCCCCCCCCCCC(=O)NC(C(=O)O)C(O)c1ccccc1 (stereo unspecified) across the screens: Rango release inh: -8%; miR-21 FLuc: -1%; GLA inh pH 4.5: -4; Rango-impB inh: 0.8%
# COc1ccc(C2CC(=O)C3=C(C2)NC(C)=C(C(=O)Nc2ccccc2C)C3c2coc3ccc(C)cc3c2=O)cc1OC (stereo unspecified) across the screens: Rango release inh: 1%; miR-21 FLuc: 9%; GLA inh pH 4.5: -26; Rango-impB inh: -1.2%
# Cc1ccc(S(=O)(=O)N2CCCCC2)cc1C(=O)N1CCCC1 across the screens: Rango release inh: ?; miR-21 FLuc: -6%; GLA inh pH 4.5: /; Rango-impB inh: 0.0%

# (listing goes on)
no.	structure	Rango release inh	miR-21 FLuc	GLA inh pH 4.5	Rango-impB inh
9	CC(C)C(=O)Nc1ccc(C(=O)Nc2ccc(Br)cc2F)cc1	-11%	-19%	3	0.3%
10	Cc1[nH]c(=O)c(C#N)c2c1COC(C)(C)C2	13%	-15%	6	2.9%
11	COc1cc(C(=O)Oc2ccc(Br)cc2C(=S)N2CCOCC2)cc(OC)c1OC	4%	1%	/	2.6%
12	CC(NC(=O)COC(=O)Cc1ccsc1)C1CC2CCC1C2 (stereo unspecified)	1%	-15%	-3	-2.0%
13	CCCC(=O)N(Cc1cc2cccc(C)c2[nH]c1=O)c1ccccc1OC	-27%	-2%	-6	3.0%
14	Cn1c(=O)n(C)c2cc(S(=O)(=O)N3CCN(c4ccccc4)CC3)ccc21	1%	1%	-7	0.2%
15	CCOC(=O)C1CCCN(C(=O)c2ccc(CS(=O)(=O)c3ccc(Br)cc3)o2)C1 (stereo unspecified)	-1%	1%	-3	-3.4%
16	COc1cc(CNC(=O)CCCC/C=C/C(C)C)ccc1O	-14%	/	3&-2&1	-3.2%
17	Cc1[nH]n(-c2ccc([N+](=O)[O-])cc2)c(=O)c1C=NCCN1CCN(C(=O)c2ccccc2)CC1	7%	-5%	-3	1.0%
18	CC(=O)C1CCC2C(CCC3=CC(=O)CCC32)C1 (stereo unspecified)	1%	/	/	-1.8%
19	CCOC(=O)/C(=C/c1ccc(OC(=O)c2ccncc2)cc1)C(C)=O	8%	4%	-5	0.1%
20	Cc1ccc(CNC(=O)CN2C(=O)NC3(CC(C)CC(C)(C)C3)C2=O)cc1 (stereo unspecified)	1%	/	/	-2.7%
21	CC(NC(=O)Nc1ccccc1O)(C(F)(F)F)C(F)(F)F	-5%	-2%	-14	1.1%
22	CC(=O)Nc1ccc(S(=O)(=O)NCC2CCC(C(=O)N3CCCCC3)CC2)cc1 (stereo unspecified)	1%	-4%	/	0.5%
23	COc1ccccc1-n1c(O)c(C=NCc2ccccn2)c2ccccc2c1=O	-18%	-1%	-3	-4.2%
24	CSCCn1c(C(C)(C)C)cc(C(=O)O)c1C	1%	-2%	6	-0.1%

# 3 entries from above, ordered by their value in Rango release inh, highest first.
no.	structure	Rango release inh	miR-21 FLuc	GLA inh pH 4.5	Rango-impB inh
19	CCOC(=O)/C(=C/c1ccc(OC(=O)c2ccncc2)cc1)C(C)=O	8%	4%	-5	0.1%
18	CC(=O)C1CCC2C(CCC3=CC(=O)CCC32)C1 (stereo unspecified)	1%	/	/	-1.8%
21	CC(NC(=O)Nc1ccccc1O)(C(F)(F)F)C(F)(F)F	-5%	-2%	-14	1.1%

# Going on with the list.
no.	structure	Rango release inh	miR-21 FLuc	GLA inh pH 4.5	Rango-impB inh
25	Cc1cc2ncc(-c3cccs3)nc2cc1C	7%	-46%	/	1.9%
26	CN(C(=O)CCN1CCCO1)C1CCCN(Cc2ccccc2F)C1 (stereo unspecified)	-3%	0%	/	-0.2%
27	COc1ccc(NC(=O)C(=O)NCC(c2ccco2)N2CCc3ccccc3C2)cc1OC (stereo unspecified)	5%	/	/	2.4%
28	CCCc1cc(=O)[nH]c(SCC(=O)Nc2ccc3c(c2)CCC3)n1	-5%	-4%	2	-3.2%
29	O=C(CN1C(=O)NC2(CCCCCCC2)C1=O)NCc1ccc(Cl)cc1	7%	/	/	0.0%
30	Cc1nnc(SCC(=O)c2ccc(C(C)C)cc2)s1	1%	-41%	-1	-0.8%
31	CCC(C)N(CCNC(=O)CC1Oc2ccc(C)cc2NC1=O)C1CCCCC1 (stereo unspecified)	-13%	-4%	-4	-4.9%
32	CCOC(=O)c1[nH]c2ccccc2c1NC(=S)Nc1cccc(C)c1	-14%	-44%	0	?
33	Fc1cccc(COc2ccccc2C(=S)N2CCCC2)c1	12%	-18%	2	2.2%
34	O=C(NCCCn1ccnc1)c1cc(-c2ccccc2)on1	22%	-157%	8	-2.0%
35	C/C(=N\NC(=O)CNC(=O)c1ccc2c(c1)OCO2)c1ccco1	-14%	-3%	-1	-0.1%
36	CCc1ccc(NC(=O)c2cc(-c3ccc(F)cc3)on2)cc1	11%	-2%	-1	-0.2%
37	COC(=O)c1ccc(NS(=O)(=O)c2ccccc2)o1	5%	-2%	-15	?
38	COC(=O)c1ccc(Oc2nc(C)cc(Oc3ccccc3)n2)cc1	-5%	-10%	-5	0.4%
39	CCOC(=O)/C(=C\c1ccc(C)cc1)NC(=O)c1ccccc1	-1%	1%	1	5.6%
40	CCn1c(=S)[nH]c2cc(S(=O)(=O)N3CCCCC3)ccc21	-11%	-9%	-2	3.4%
41	CN(CC1CCCO1)S(=O)(=O)c1ccc(C(=O)Nc2ccc3c(c2)OCO3)cc1 (stereo unspecified)	1%	3%	-13	0.0%
42	CCOC(=O)c1cnc2c(C(=O)OC)cccc2c1NCCN1CCOCC1	24%	-2%	5	?
43	O=C(O)CCCN1C(=O)c2ccc(Oc3cccc([N+](=O)[O-])c3)cc2C1=O	25%	0%	0	0.4%
44	Cc1ccc(Nc2nnc(C(C)(C)C)c(=O)n2N)cc1	-13%	-6%	-8	-2.0%
45	O=C(CN1C(=O)c2ccccc2S1(=O)=O)Nc1ncc(Cl)cc1Cl	?	/	/	?
46	CCOC(=O)c1cnc2c(c(C)nn2CC)c1NC1CC1	-9%	-14%	7	2.3%
47	COc1ccc(C(=O)NCCc2nnc3ccc(SCC(=O)Nc4ccccc4F)nn23)cc1	-6%	2%	/	2.2%
48	Cn1c2ccccc2c2nnc(SCCN3CCOCC3)nc21	-7%	-25%	/	0.0%
49	CCCn1cc(CN2CCN(Cc3ccc(C)o3)C(CCO)C2)c(C)n1 (stereo unspecified)	26%	-1%	7	0.0%
50	CCC(C)[C@H](NC(=O)[C@@H]1CSC2c3ccccc3C(=O)N21)C(=O)NCc1ccncc1 (stereo partly specified)	1%	0%	/	0.4%
51	CNc1nc(SCc2ccc(C)cc2)nc2c1CCCC2	15%	-25%	-6	?
52	O=S(=O)(O)C(c1ccccc1)C1(O)CCCCC1 (stereo unspecified)	8%	/	/	-0.9%
53	O=C(CN(Cc1ccco1)Cc1ccco1)Nc1cc(S(=O)(=O)N2CCCCC2)ccc1Cl	-3%	/	/	0.1%
54	COc1cccc(NC(=S)NC2CC(C)(C)NC(C)(C)C2)c1	1%	-8%	-2	0.7%
55	COc1cccc(CNC(=O)C2CCN(S(=O)(=O)c3ccc4c(c3)OCCO4)CC2)c1	10%	-1%	/	1.9%
56	COC(=O)c1cc(NC(=O)c2c(Cl)cnn2C)cc(C(=O)OC)c1	2%	2%	-13	-3.9%
57	Cc1ccc(-c2nnc(-n3nnc4ccccc43)c3ccccc23)cc1	-10%	0%	-6	-3.3%
58	COc1ccc(C2C(C#N)=C(N)N(c3cccnc3)C3=C2C(=O)CCC3)cc1Cn1cc([N+](=O)[O-])cn1 (stereo unspecified)	-26%	-6%	3	?
59	O=C(CCc1nc2ccccc2c(=O)[nH]1)Nc1ccc(N2CCCCC2)cc1	0%	2%	2	-1.6%
60	COc1ccc(/C=C/c2noc(-c3ccccc3O)n2)cc1	1%	-29%	1	2.2%
61	COc1cc(C(=O)NC(=S)N(CCC#N)Cc2cccnc2)cc(OC)c1OC	-19%	/	/	-1.2%
62	Cc1ccc(NC(=O)CCOc2ccccc2)cc1S(=O)(=O)Nc1ccccc1Cl	0%	24%	-4	-2.1%
63	COc1ccc(CCN(C)CCCN2CC(c3ccccc3)CC2=O)cc1OC (stereo unspecified)	-15%	-6%	-12	-1.7%
64	CCCCOCC(O)CN1CCN(C(C)=O)CC1 (stereo unspecified)	15%	-2%	3	?
65	CC(=O)c1cc2c(cc1F)C(C)(C)CCC2(C)C	-1%	/	/	-3.1%
66	COC(=O)CSc1nc(N)nc(C)c1Cl	28%	-2%	5	-2.7%
67	Cc1ccc(-c2nn(-c3ccccc3)cc2C(=O)NC2CCC(O)CC2)cc1 (stereo unspecified)	3%	/	/	2.0%
68	COc1ccc(C(=O)CSc2nnc(-c3ccco3)n2C)cc1	-18%	-2%	5	-1.3%
69	CCCc1cc2c(OC(=O)CC)c(-c3ccc(C(=O)OCC)o3)c(=O)oc2cc1OC	?	0%	9	?
70	N#CC12CCCCC1CC1CCCCC1(C#N)N2N (stereo unspecified)	-13%	4%	7	-0.4%
71	O=C(c1ccc(CNc2c(N3CCOCC3)c(=O)c2=O)cc1)N1CC=C(c2ccccc2)CC1	7%	-2%	8	6.0%
72	Clc1ccc(CSc2cnnc3ccccc23)cc1Cl	25%	/	/	-2.7%
73	Cc1cc(C)cc(N2C(N)=NC(N)=NC2c2ccccc2F)c1 (stereo unspecified)	0%	3%	/	-0.1%
74	CC(C)Sc1nc2ccc(Br)cc2[nH]1	0%	-44%	-3	-0.1%
75	CCN1CCN(Cc2cccc(Oc3ccc(Cl)cc3)c2)CC1	13%	11%	-4	-3.2%
76	Cc1nccn1CCCNC(=O)c1nc(Cn2cc([N+](=O)[O-])cn2)no1	15%	1%	/	0.6%
77	O=C1Cc2ccccc2C(=O)N1Cc1cccc(Cl)c1	9%	-2%	/	1.8%
78	NS(=O)(=O)c1ccc(NC(=O)c2ccc(S(=O)(=O)N3CCc4ccccc43)cc2)cc1	-7%	7%	6	-0.8%
79	CCOc1ccc2nc(NCCNC(=O)C(C)(C)C)c(C)cc2c1	-7%	-12%	2	-2.3%
80	CCOC(=O)C1CCN(C(=O)Nc2ccc(Cl)cc2Cl)CC1	8%	-17%	-2	1.9%

# Next records follow:
no.	structure	Rango release inh	miR-21 FLuc	GLA inh pH 4.5	Rango-impB inh
81	COc1ccc(-n2nnc3c(=O)n(Cc4cccc(C)c4)cnc32)cc1	7%	-3%	1	6.5%
82	NS(=O)(=O)c1ccc(CCNCc2cccnc2)cc1	6%	0%	/	0.5%
83	COc1ccc(N2C(=O)C3CCCN3C2c2cccc(OC)c2)cc1 (stereo unspecified)	-7%	-16%	0	3.3%
84	Cc1cccc(S(=O)Cc2ccc(C(=O)NC3CCN(Cc4ccccc4)CC3)o2)c1 (stereo unspecified)	-16%	4%	/	-0.5%
85	Cc1noc(C)c1COc1ccccc1C(=O)NCCOc1ccccc1	2%	/	/	-2.0%
86	Cc1ccccc1C(=O)NNC(=O)C1CC(=O)N(Cc2ccccc2)C1 (stereo unspecified)	-4%	/	/	-6.7%

# Assay outcomes (PubChem)
